Source: PubChem
MLL AF4-AF9 inh = blocks AF4 peptide binding to human AF9; P42568; AlphaScreen, biotin-AF4 peptide binding to FLAG-AF9; inhibition, % at 10 µM; hit rate 0.47% among 350,000; AID 651704;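 active means every replicate reaching a set inhibition limit, whatever the replicate mean, cut at about 25% in these data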;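 further: 0% = plate neutral control median and 100% = total signal loss; the record names both 10 and 1 µM as test concentration; the first replicate is given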
Target sequence (P42568 whole entry, looked up): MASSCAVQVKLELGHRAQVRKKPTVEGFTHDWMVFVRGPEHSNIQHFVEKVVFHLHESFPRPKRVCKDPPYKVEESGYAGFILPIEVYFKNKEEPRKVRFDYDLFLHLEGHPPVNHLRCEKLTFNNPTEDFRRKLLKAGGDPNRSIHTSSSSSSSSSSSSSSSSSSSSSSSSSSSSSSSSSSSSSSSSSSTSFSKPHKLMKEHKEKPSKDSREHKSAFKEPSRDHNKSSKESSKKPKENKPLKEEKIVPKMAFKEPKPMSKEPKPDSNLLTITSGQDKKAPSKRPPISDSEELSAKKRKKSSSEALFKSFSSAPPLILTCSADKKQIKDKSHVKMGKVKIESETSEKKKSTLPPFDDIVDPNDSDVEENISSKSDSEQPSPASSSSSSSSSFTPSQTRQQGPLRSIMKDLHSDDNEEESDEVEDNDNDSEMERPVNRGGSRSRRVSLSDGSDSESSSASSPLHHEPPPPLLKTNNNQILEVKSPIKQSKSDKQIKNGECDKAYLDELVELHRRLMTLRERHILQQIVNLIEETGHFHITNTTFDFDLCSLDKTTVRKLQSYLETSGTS
An asterisk follows results filed as active; & = joins results of further samples. This is a subset, so the mix of outcomes need not match the whole.

MLL AF4-AF9 inh,Structure
-1.0,COc1ccc(-c2ccc([C@@H]3[C@H]4CN(C(=O)C5CCCC5)CC(=O)N4[C@H]3CO)cc2)cc1
-5.8,C/C=C/c1ccc([C@H]2[C@@H](CO)N(C(=O)C3CC3)[C@H]2CN(C)C(=O)CC)cc1
-2.1,C[C@H]1CN([C@@H](C)CO)C(=O)c2cccc(NS(=O)(=O)c3ccc(Cl)cc3)c2O[C@@H]1CN(C)CC1CC1
-7.5,COCC(=O)N1[C@H](CO)[C@H](c2ccc(-c3cccc(F)c3)cc2)C12CN(C(=O)C1CC1)C2
-1.9,COc1ccc(S(=O)(=O)Nc2ccc3c(c2)CC(=O)N([C@H](C)CO)C[C@@H](C)[C@@H](CN(C)CC2CC2)O3)cc1
-0.3,O=C(c1ccccn1)N1CC2(C1)[C@@H](c1ccccc1)[C@H](CO)N2C(=O)C1CCC1
-3.2,Cc1ccc(S(=O)(=O)Nc2ccc3c(c2)C(=O)N([C@H](C)CO)C[C@H](C)[C@@H](CN(C)C(=O)c2ccccc2)OCCCC[C@@H](C)O3)cc1
-1.9,COc1ccc(C#Cc2ccc([C@H]3[C@@H](CO)N4C(=O)CN(C(C)=O)C[C@H]34)cc2)cc1
-2.1,COc1ccc(-c2ccc([C@@H]3[C@H](CO)N4C(=O)CNC[C@@H]34)cc2)cc1
0.8,CO[C@@H]1CC[C@H]2CCOc3ccc(C#N)cc3C(=O)N(C)C[C@H](c3ccccc3)CC(=O)N(C)C[C@@H]1O2
-0.2,COc1ccc(S(=O)(=O)N(C)C[C@H]2OCCCC[C@H](C)Oc3ccc(NC(=O)C4CCCCC4)cc3C(=O)N([C@@H](C)CO)C[C@@H]2C)cc1
-2.2,COc1ccc2c3c([nH]c2c1)[C@H](CO)N(Cc1ccccc1OC)CC31CN(S(C)(=O)=O)C1
1.1,Cc1ccccc1S(=O)(=O)N1CC(=O)N2[C@H](CO)[C@H](c3ccc(C#CCN(C)C)cc3)[C@@H]2C1
-2.2&-2.7,O=S(=O)(c1ccccc1)N1C[C@@H]2N[C@H](C1)C2c1ccc(/C=C/c2ccccc2)cc1 (some centres not stated)
-1.7,O=C(O)C[C@H]1C[C@H]2c3cc(NS(=O)(=O)c4ccc(F)cc4)ccc3O[C@H]2[C@H](CO)O1
-8.9,CO[C@H]1CN(C)C(=O)c2cc(NC(=O)CC(F)(F)F)ccc2OC[C@@H](C)NC[C@H]1C
1.3,CCCC#Cc1ccc([C@H]2[C@H](CO)N3C(=O)CN(C(=O)c4cccnc4)C[C@@H]23)cc1
2.2,N#C[C@H]1[C@@H](c2ccc(C3=CCCCC3)cc2)[C@H](CO)N1C(=O)NC1CCCC1
0.3,CC(C)NC(=O)N1CC2(C1)[C@@H](c1ccccc1)[C@H](CO)N2C(=O)C1CC1
-4.0,O=C(C[C@@H]1C[C@H]2c3cc(NC(=O)C4CCOCC4)ccc3O[C@H]2[C@H](CO)O1)NC1CCCCC1
10,COc1ccc(CN(C)C[C@H]2OCCCC[C@H](C)Oc3ccc(NC(=O)c4ccccc4)cc3C(=O)N([C@@H](C)CO)C[C@H]2C)cc1
0.4,Cc1noc(C)c1NC(=O)Nc1ccc2c(c1)C(=O)N([C@@H](C)CO)C[C@H](C)[C@@H](CN(C)S(=O)(=O)c1ccccc1)OCCCC[C@H](C)O2
-3.3,O=C(C[C@@H]1CC[C@@H](NC(=O)c2ccncc2)[C@H](CO)O1)NCc1ccncn1
15,CN(C)CC#Cc1ccc([C@@H]2[C@H](CO)N3C(=O)CN(C(=O)c4cccnc4)C[C@@H]23)cc1
-1.9,O=C(c1ccccn1)N1CC2(C1)[C@@H](c1ccccc1)[C@@H](CO)N2C(=O)C1CCCC1
37*,O=C(Cc1cccnc1)N1CC(=O)N2[C@H](C1)[C@H](c1ccc(C3=CCCC3)cc1)[C@@H]2CO
-0.6,O=C(c1cccc(F)c1)N1CC2(C1)[C@H](c1ccccc1)[C@@H](CO)N2C(=O)C1CCCC1
-1.9,CC(C)NC(=O)N(C)C[C@H]1OCCCC[C@H](C)Oc2ccc(NC(=O)Cc3ccccc3)cc2C(=O)N([C@H](C)CO)C[C@H]1C
-1.5,C[C@@H]1CN([C@@H](C)CO)C(=O)c2cc(NC(=O)Nc3cccc4ccccc34)ccc2O[C@@H](C)CCCCO[C@@H]1CN(C)S(=O)(=O)c1ccc(Cl)cc1
14&3.5,C[C@@H]1CN([C@H](C)CO)C(=O)c2cc(NS(=O)(=O)c3ccc(Cl)cc3)ccc2O[C@@H](C)CCCCO[C@H]1CN(C)Cc1ccc2c(c1)OCO2
-1.7,CCCNC(=O)N1CC(=O)N2[C@@H](CO)[C@@H](c3ccc(C#Cc4cccc(F)c4)cc3)[C@@H]2C1
3.8,CCNC(=O)C[C@H]1CC[C@H]2[C@H](COc3ccc(NC(=O)Nc4cccc(Cl)c4)cc3C(=O)N2C)O1
-2.7&-4.5,O=S(=O)(c1ccccc1)N1[C@@H]2CNC[C@H]1C2c1ccc(-c2cccc(F)c2)cc1 (some centres not stated)
2.1,O=C(NC1Cc2ccccc2C1)[C@@H]1N[C@@H]2c3ccc(C4=CCCC4)c(=O)n3C[C@@H]2[C@H]1CO
-0.6,COCC(=O)N1CC(=O)N2[C@H](CO)[C@@H](c3ccc(-c4ccccc4C)cc3)[C@H]2C1
-0.9,O=C1CN(S(=O)(=O)c2ccccc2)C[C@H]2[C@@H](c3ccc(C#Cc4ccccc4)cc3)[C@@H](CO)N12
-1.6,O=C(Nc1cccc(F)c1)N1CC(=O)N2[C@H](C1)[C@@H](c1ccc(C#Cc3cccnc3)cc1)[C@@H]2CO
39*,COc1ccc2c3c(n(C)c2c1)[C@@H](CO)NCC31CN(Cc2ccccc2Cl)C1
-5.4,CCNC(=O)[C@H]1[C@H](CO)[C@H]2Cn3c(ccc(C4=CCCCC4)c3=O)[C@@H]1N2C(=O)Cc1ccccn1
-6.2,O=C(Nc1cc(F)ccc1F)N1CC(=O)N2[C@H](C1)[C@H](c1ccc(-c3ccccc3)cc1)[C@@H]2CO

A run of entries of the results above, for reference:
MLL AF4-AF9 inh,Structure
10,COc1ccc(CN(C)C[C@H]2OCCCC[C@H](C)Oc3ccc(NC(=O)c4ccccc4)cc3C(=O)N([C@@H](C)CO)C[C@H]2C)cc1
0.4,Cc1noc(C)c1NC(=O)Nc1ccc2c(c1)C(=O)N([C@@H](C)CO)C[C@H](C)[C@@H](CN(C)S(=O)(=O)c1ccccc1)OCCCC[C@H](C)O2
-3.3,O=C(C[C@@H]1CC[C@@H](NC(=O)c2ccncc2)[C@H](CO)O1)NCc1ccncn1
15,CN(C)CC#Cc1ccc([C@@H]2[C@H](CO)N3C(=O)CN(C(=O)c4cccnc4)C[C@@H]23)cc1
-1.9,O=C(c1ccccn1)N1CC2(C1)[C@@H](c1ccccc1)[C@@H](CO)N2C(=O)C1CCCC1
37*,O=C(Cc1cccnc1)N1CC(=O)N2[C@H](C1)[C@H](c1ccc(C3=CCCC3)cc1)[C@@H]2CO
-0.6,O=C(c1cccc(F)c1)N1CC2(C1)[C@H](c1ccccc1)[C@@H](CO)N2C(=O)C1CCCC1
-1.9,CC(C)NC(=O)N(C)C[C@H]1OCCCC[C@H](C)Oc2ccc(NC(=O)Cc3ccccc3)cc2C(=O)N([C@H](C)CO)C[C@H]1C
-1.5,C[C@@H]1CN([C@@H](C)CO)C(=O)c2cc(NC(=O)Nc3cccc4ccccc34)ccc2O[C@@H](C)CCCCO[C@@H]1CN(C)S(=O)(=O)c1ccc(Cl)cc1
14&3.5,C[C@@H]1CN([C@H](C)CO)C(=O)c2cc(NS(=O)(=O)c3ccc(Cl)cc3)ccc2O[C@@H](C)CCCCO[C@H]1CN(C)Cc1ccc2c(c1)OCO2
-1.7,CCCNC(=O)N1CC(=O)N2[C@@H](CO)[C@@H](c3ccc(C#Cc4cccc(F)c4)cc3)[C@@H]2C1

New compounds follow:
MLL AF4-AF9 inh,Structure
-1.7,CC(=O)N1[C@H](CO)[C@H](c2ccc(-c3ccncc3)cc2)[C@@H]1CNC(=O)CC1CC1
-3.0,COCCNC(=O)[C@@H]1[C@@H](CO)[C@@H]2Cn3c(ccc(-c4ccccc4OC)c3=O)[C@@H]2N1C(=O)C1CCC1
1.4,C/C=C/c1ccc([C@H]2[C@@H](CO)N3C(=O)CN(C(=O)Nc4ccc(OC)cc4)C[C@@H]23)cc1
-14,COCCNC(=O)C[C@@H]1CC[C@H]2[C@@H](COC[C@@H](O)CN2Cc2cccc(-c3ccncc3)c2)O1
2.3&0.0,Fc1cccc(CN2[C@@H]3CNC[C@H]2C3c2ccc(-c3cccc(F)c3)cc2)c1 (some centres not stated)
-0.7,O=C(C[C@@H]1CC[C@@H](NS(=O)(=O)c2ccccc2)[C@H](CO)O1)N1CCN(c2ccccc2)CC1
-2.3,O=C(Cc1ccccn1)N1CC(=O)N2[C@H](CO)[C@H](c3ccc(C#CC4CC4)cc3)[C@@H]2C1
4.2,COC(=O)C1=C(C)N(C)C(=NCc2ccc3c(c2)OCO3)NC1c1ccc(Cl)cc1 (configuration not stated)
-0.2,CCOC(=O)Cn1c2c(n(-c3ccc(F)cc3)c1=O)C=C(c1ccccc1)[C@@H](C)C(C(=O)N(C)C1CCCCC1)=C2
-3.6,CCC(=O)N1CC2(C1)CN(Cc1cc(F)ccc1F)[C@H](CO)c1[nH]c3cc(OC)ccc3c12
1.5,CO[C@@H]1CN(C)C(=O)c2ccc(NC(C)=O)cc2OC[C@H](C)N(C(=O)C2CCC2)C[C@@H]1C
1.1,N#C[C@@H]1[C@@H](c2ccccc2C2=CCCCC2)[C@@H](CO)N1C(=O)NC1CCCCC1
-4.2,COc1ccc2c3c([nH]c2c1)[C@@H](CO)N(S(C)(=O)=O)CC31CN(C(=O)c2cccnc2)C1
-3.9,COc1ccc(C(=O)Nc2ccc3c(c2)OC[C@H](C)NC[C@H](C)[C@@H](OC)CN(C)C3=O)cc1
-0.4,O=C(Nc1cc(F)ccc1F)N1CC(=O)N2[C@H](C1)[C@@H](c1ccc(-c3ccc(F)cc3)cc1)[C@@H]2CO
-0.3,C/C=C/c1ccc([C@H]2[C@@H](CO)N[C@@H]2CNC(=O)C2CCC2)cc1
-4.2,COc1cccc(C(=O)Nc2ccc3c(c2)OC[C@@H](C)NC[C@H](C)[C@H](OC)CN(C)C3=O)c1
-2.7&-1.4,O=C(Nc1cc(F)ccc1F)N1[C@@H]2CNC[C@H]1C2c1ccc(-c2cccnc2)cc1 (some centres not stated)
1.7,O=C(Cc1ccccn1)N1CC(=O)N2[C@H](CO)[C@H](c3ccc(C#CC4CCCC4)cc3)[C@@H]2C1
-3.6,CCCN1[C@@H]2c3ccc(-c4ccc(OC)cc4)c(=O)n3C[C@H]1[C@H](CO)[C@H]2C(=O)NCC
4.4,C[C@@H]1CN([C@H](C)CO)C(=O)c2cc(NC(=O)CCCCCC(=O)Nc3ccccc3N)ccc2O[C@@H]1CN(C)Cc1ccc(Oc2ccccc2)cc1
-0.5,O=C(C[C@H]1C[C@@H]2c3cc(NC(=O)C4CCOCC4)ccc3O[C@@H]2[C@@H](CO)O1)NC1CCCCC1
-1.2,CCS(=O)(=O)NC[C@@H]1[C@@H](c2ccccc2)[C@@H](CO)N1CC1CCCCC1
-5.5,COc1ccc(S(=O)(=O)Nc2ccc3c(c2)C(=O)N([C@@H](C)CO)C[C@H](C)[C@H](CN(C)S(=O)(=O)c2c(C)noc2C)OCCCC[C@@H](C)O3)cc1
-1.9,C[C@@H]1CN([C@@H](C)CO)C(=O)c2cc(C3=CCCC3)cnc2O[C@H]1CN(C)C(=O)Nc1cccc(F)c1
3.5,C/C=C/c1ccc([C@@H]2[C@H]3CN(Cc4ccc(C(=O)OC)cc4)CC(=O)N3[C@H]2CO)cc1
-9.6,CCC(=O)N1CC2(CN(C(C)=O)C2)c2c([nH]c3cc(OC)ccc23)[C@@H]1CO
0.6,CC(C)NC(=O)N(C)C[C@H]1Oc2cc(-c3cccnc3)ccc2S(=O)(=O)N([C@H](C)CO)C[C@@H]1C
-3.6,CN(C)CCCNC(=O)C[C@@H]1C=C[C@@H](NC(=O)Cc2cccnc2)[C@@H](CO)O1
-2.9,C[C@@H]1CN([C@H](C)CO)C(=O)c2cccc(NS(=O)(=O)c3cn(C)cn3)c2O[C@@H]1CN(C)CC1CCCCC1
-6.4&-2.5,Cc1ccccc1-c1ccc(C2[C@@H]3CN(C(=O)C4CCOCC4)C[C@H]2N3)cc1 (some centres not stated)
-0.5,C[C@H](CO)N1C[C@H](C)[C@@H](CN(C)C(=O)Nc2ccccc2)OCCCC[C@H](C)Oc2ccc(NC(=O)Nc3cccc4ccccc34)cc2C1=O
-4.9,O=C(C[C@H]1C=C[C@@H](NC(=O)Cc2ccccn2)[C@@H](CO)O1)NCCc1ccccc1
3.6,COCC(=O)N1C[C@H](C)[C@H](OC)CN(C)C(=O)c2ccc(NC(=O)Nc3ccccc3)cc2OC[C@@H]1C
1.0,CCc1csc(N2[C@H](C#N)[C@H](c3ccccc3C3=CCCC3)[C@H]2CO)n1
9.1,CN1c2ccc(-c3cccc(C#N)c3)cc2[C@H]2[C@H](CCN2C(=O)C2CC2)[C@H]1CO
0.7,CC(C)c1cn(CC[C@H]2CC[C@H](NC(=O)Nc3cc(Cl)cc(Cl)c3)[C@@H](CO)O2)nn1
9.4,CN(C)C(=O)c1ccc(-c2ccc([C@H]3[C@H]4CN(C(=O)C5CC5)CCCCN4[C@H]3CO)cc2)cc1
12,COc1ccc2c3c([nH]c2c1)[C@@H](CO)N(Cc1ccccn1)CC31CN(Cc2cccc(F)c2)C1
-9.2,COCC(=O)N1CC2(C1)CN(C(=O)CN1CCOCC1)[C@@H](CO)c1c2c2ccc(OC)cc2n1C
0.7,N#C[C@H]1[C@H](c2ccccc2-c2cccc(F)c2)[C@H](CO)N1C(=O)C1CC1
-8.9,Cc1noc(C)c1S(=O)(=O)Nc1ccc2c(c1)C(=O)N([C@@H](C)CO)C[C@@H](C)[C@@H](CN(C)C(=O)c1ccccc1)OCCCC[C@@H](C)O2
-1.5,O=C(C[C@@H]1C[C@H]2c3cc(NC(=O)Nc4ccccc4)ccc3O[C@H]2[C@@H](CO)O1)NCC(F)(F)F
11,COc1ccc(C#Cc2ccc3c(c2)[C@H]2[C@H](CCN2Cc2ccncc2)[C@@H](CO)N3)cc1
-3.2,COc1cccc(C#Cc2ccc([C@@H]3[C@@H](CO)N(C(=O)C4CCCC4)[C@H]3C#N)cc2)c1
-0.1,C/C=C/c1ccc([C@H]2[C@@H](CO)N[C@@H]2CNC(=O)C2CC2)cc1
